TRPV1 PAM – potentiators of human vanilloid receptor 1 (TRPV1) | Q8NER1 | TRPV1-expressing cells, Fluo-8 calcium influx, capsaicin EC20 potentiation; host cell line not named in the record; control for the full effect not named in the record | 0.02% of 320,000 active | potentiation, % at 8.33 µM; active means potentiation above 80%; inconclusive means 30% to 80%; inactive means below 30%; further: 0% is about no effect
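Fluo-8 calcium influx in TRPV1-expressing cells, kinetic read (ex 480/em 520 nm). Compound added and read 3 min for agonist activity, followed by capsaicin at EC20 final and 2 min further read for enhancement.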
Sfp inh – inhibitors of Bacillus subtilis Sfp phosphopantetheinyl transferase. 3.5% of 310,000 active. Biochemical Sfp PPTase activity, qHTS. Q9F4F7. Potency, µM, for inactives: max response, negative = inhibition, actives largely listed as inhibitors; active means well fitted inhibition curve with a large enough effect; inconclusive means small, poorly fitted or top-dose-only effect, or another doubt; inactive means no such curve, though single readings can be large or run the other way;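 further: the enzyme is Sfp with the accession as filed and its product quenches rhodamine fluorescence; potency means the concentration at half of the fitted maximal effect; 0% = enzyme reaction without inhibitor and -100% = no enzyme wells; top concentration of the series not given in the record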
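Compounds were incubated with enzyme (final 15 nM) for 15 min at room temperature before substrate addition started the reaction. Fluorescence at 525 nm excitation, 598 nm emission was recorded immediately and after 30 minutes.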
D2 PAM – positive allosteric modulators of human D2 dopamine receptor; P14416; DiscoveRx D2 beta-arrestin cells, luminescence, 90 min; 100% = 57 uM dopamine signal; potentiation, % (test concentration not listed); 0.23% of 360,000 active; AID 624464; active = potentiation of 50% or more; inconclusive = 30% to 50%; inactive = 30% or less;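 further: compound concentration not given in the record; tested on top of an EC20 dose of dopamine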
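D2 cells co-treated with compound plus 50 nM dopamine (EC20) for 90 min at 37 deg C to detect potentiation. Beta-arrestin recruitment was read as enzyme-fragment luminescence after 1 h at ambient temperature. Full response was set by 57 uM dopamine.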
D2 ag – activates the human D2 dopamine receptor; P14416; DiscoveRx PathHunter D2 beta-arrestin, luminescence, 90 min; 100% = 57 uM dopamine signal; activation, % (no concentration beside the values); 0.084% of 360,000 active; in the data active = activation above about 40%; inconclusive = about 15% to 40%; inactive = below about 15%; further: compound concentration not given in the record; the text of the record calls up to 30% inactive
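Agonist mode: compounds alone added to overnight-plated D2 PathHunter cells for 90 min at 37 C, with 57 uM final dopamine (EC100) defining full response. Beta-arrestin recruitment detected by chemiluminescent reagent, read after 1 h at ambient temperature.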
Six1-Eya2 inh – blocks human Six1 binding to Eya2; Q15475+O00167; activity change, % (no concentration beside the values); AlphaScreen GST-Six1/His-Eya2 binding, biochemical; hits give low values; control for the full effect not named in the record; 0.56% of 360,000 active; in the data active = activity change below about -65%; inconclusive = about -30% to -65%; inactive = above about -30%; further: on the % scale 0 is the no-effect control and ±100 the full control effect; compound concentration not given in the record
Target sequence (O00167 whole entry, looked up): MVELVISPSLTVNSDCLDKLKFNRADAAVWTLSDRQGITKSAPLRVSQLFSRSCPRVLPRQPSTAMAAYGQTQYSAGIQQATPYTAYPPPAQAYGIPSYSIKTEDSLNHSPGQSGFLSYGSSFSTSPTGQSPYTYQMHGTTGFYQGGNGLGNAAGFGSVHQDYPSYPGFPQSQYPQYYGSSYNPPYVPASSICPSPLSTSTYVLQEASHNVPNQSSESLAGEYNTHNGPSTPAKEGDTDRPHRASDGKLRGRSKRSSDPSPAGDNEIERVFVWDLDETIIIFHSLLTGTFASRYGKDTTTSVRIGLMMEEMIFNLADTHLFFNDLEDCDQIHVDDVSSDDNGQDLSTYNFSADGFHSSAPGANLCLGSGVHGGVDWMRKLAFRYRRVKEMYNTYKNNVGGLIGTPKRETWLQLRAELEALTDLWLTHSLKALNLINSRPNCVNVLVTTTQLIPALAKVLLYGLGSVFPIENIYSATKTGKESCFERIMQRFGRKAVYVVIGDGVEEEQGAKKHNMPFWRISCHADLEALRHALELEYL
Target sequence (Q15475 whole entry, looked up): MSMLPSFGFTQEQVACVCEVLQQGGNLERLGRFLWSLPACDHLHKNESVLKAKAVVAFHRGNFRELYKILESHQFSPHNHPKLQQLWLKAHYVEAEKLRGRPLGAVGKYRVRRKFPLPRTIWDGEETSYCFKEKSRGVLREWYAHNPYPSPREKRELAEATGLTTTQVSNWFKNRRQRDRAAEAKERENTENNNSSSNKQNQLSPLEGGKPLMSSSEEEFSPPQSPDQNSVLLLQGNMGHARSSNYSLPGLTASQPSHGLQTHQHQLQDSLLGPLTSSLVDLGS
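Six1/Eya2 binding was read as AlphaScreen signal after compounds were pinned into GST-Six1 plus His-tagged Eya2 (5X stock 250/500 nM) in pH 8.0 Tris/NaCl/TCEP buffer, beads added, then incubated 1 h, 37 C, dark.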
PINK1 modulator – PINK1 expression modulation. 0.2% of 410,000 active. PINK1 immunofluorescence, high-content cytometry, 24 h. Potency, µM (series often up to 76.6 µM), without a hit: at the top dose activation (PINK1 increase), hits mostly activators; active = well fitted activation curve with a large enough effect; inconclusive = small, poorly fitted or top-dose-only effect; inactive = flat fitted curve, though single readings scatter; cell line not stated here;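 further: potency means the concentration at half of the fitted maximal effect; % of control where 0% means no effect; nearly all actives have a fitted effect of over 65% in size; a mitochondrial uncoupler was the plate control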
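A stable cell line was treated with compounds at 5 concentrations for 24 hours, with CCCP as control. PINK1 levels and mitochondrial localization were measured by immunofluorescence with mitochondrial, cell and nuclear markers after fixation, read by laser-scanning cytometry.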
CtBP-E1A inh – blocks the CtBP interaction with E1A | AID 651724 | 0.49% of 340,000 active | AlphaScreen GST-E1A/His-CtBP binding, 1536-well; hits give low values; control for the full effect not named in the record | activity change, % (test concentration not listed); in the data active means activity change below about -65%; inconclusive means about -30% to -65%; inactive means above about -30%; further: on the % scale 0 is the no-effect control and ±100 the full control effect; compound concentration not given in the record
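Protein mix (5X: 125 nM each GST-E1A, His-CtBP) was incubated with pinned compound 2 h at 37 deg C in dark, in 50 mM Tris pH 8.0 buffer with 300 mM NaCl. Glutathione donor and nickel acceptor beads followed; AlphaScreen signal read after 1 h.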
Active calls of the source: *; u = inconclusive; x = not tested or not shown; & = joins results of further samples; [ ] = dose if it differs, or a comment.

SMILES | TRPV1 PAM | Sfp inh | D2 PAM | D2 ag | Six1-Eya2 inh | PINK1 modulator | CtBP-E1A inh
Cc1ccc(NC(=O)C2CC(=O)Nc3ncnn32)c(C)c1 (stereo not given) | -2 | -6% | 4 | -0.4 | 1 | -0.9% | 8
Cc1ccc(CNCC(O)(c2ccc(F)cc2)c2ccc(F)cc2)cc1 | 10 | 29% | -30 | 1.4 | 14 | 16% | 19
C/C(=N\NC(=O)C(N)=O)c1ccc(Br)cc1 | 4 | 6% | -2 | -6.2 | -3 | 2.4% | 6
O=C(CNC(=O)c1ccco1)N/N=C/c1ccc(O)cc1O | -8 | 13% | 0 | 8.0 | -86* | -0.6% | x
O=C(O)c1cccc(OS(=O)(=O)c2cc(Br)ccc2Br)c1 | 15 | x | 8 | -1.1 | -4 | 1.9% | x
COc1ccc(C(CC(=O)Nc2ccccc2OC)n2cccc2)cc1 (stereo not given) | -5 | -3% | 21 | -4.5 | -6 | 3.7% | -5
COc1ccc2c(Cl)c(C(=O)N/N=C/c3c(C)[nH]c4ccccc34)sc2c1 | -1 | u | -10 | -6.5 | -13 | u | -10
O=C(NCCc1cccs1)c1ccc(CS(=O)Cc2ccc(Cl)cc2)o1 (stereo not given) | -11 | 4% | -1 | -0.8 | 0 | 1.2% | 2
COc1ccc(-c2n[nH]c(=S)n2/N=C/C=C/c2ccccc2OC)cc1 | 9 | -10% | 9 | 0.1 | 7 | 3.5% | -10
CC1(C)C2CCC1(CS(=O)(=O)Nc1cccc(S(N)(=O)=O)c1)C(=O)C2 (stereo not given) | -1 | 2% | 6 | -3.7 | 0 | 0.0% | x
Cc1ccc(S(=O)(=O)Nc2cc(-c3ccccc3)nn2C)cc1Cl | 12 | 2% | -2 | -2.3 | -7 | 0.0% | 4
COc1ccc(-c2nc(CSCC(=O)NC3CCCc4ccccc43)c(C)o2)cc1 (stereo not given) | -7 | -22% | -2 | -6.3 | -12 | -6.2% | -2
CC1CCCN(CCOCCSc2ccccc2)C1 (stereo not given) | -1 | -13% | -26 | -5.0 | 14 | 1.5% | 3
O=C(Nc1nc(-c2ccc(F)c(F)c2)cs1)C1=COCCO1 | -20 | x | -3 | 7.3 | 4 | 4.5% | 3
CC1(C)Cc2c(sc3c2C2=NCCN2C=N3)CS1 | -16 | -6% | -22 | -2.8 | 0 | -2.4% | 0
CCOC(=O)C1=C(CS(=O)(=O)c2ccc(C)c(C)c2)NC(=O)NC1c1ccc(O)cc1 (stereo not given) | 6 | 20% | 0 | 5.6 | 5 | -0.9% | -11
Cc1ccc(S(=O)(=O)NC(Cc2ccccc2)C(=O)NN)cc1 (stereo not given) | -4 | 3% | -6 | 1.2 | -5 | 0.7% | 10
COC(=O)Cn1cnc2c(oc3ccccc32)c1=O | 1 | 7% | 2 | 2.6 | 3 | 1.0% | x
O=C(CN1CCN(S(=O)(=O)c2ccc(Cl)cc2)CC1)NCC1(N2CCOCC2)CCCCC1 | -12 | x | -4 | 4.8 | 0 | 0.5% | -8
CCN(CC)c1ccc(NC(=O)CSc2nnc3nc(C)cc(C)n23)cc1 | 12 | u | 24 | 0.0 | -7 | -2.0% | -8
CCOC(=O)c1cc2c(=O)c3cc(C)ccc3oc2nc1C | 3 | 17% | -1 | -3.7 | 11 | 9.7% | -3
COc1ccc(C(=O)c2coc3ccc(O)c(CN4CCCC4)c23)cc1 | 16 | -2% | -10 | -5.7 | 0 | -0.1% | -11
Nc1nc(NCc2cccs2)nn1-c1ccccc1 | x | x | -2 | -0.4 | 2 | -1.3% | 1
N#CC1=C(SCC(=O)Nc2ccccc2)NC(=O)CC1c1ccc(O)cc1 (stereo not given) | -9 | 18% | -3 | -3.1 | -7 | 1.9% | -10
CCCCc1nnc(NC(=O)C2CC(=O)N(c3ccc4c(c3)OCCO4)C2)s1 (stereo not given) | 0 | 4% | -3 | -3.1 | 8 | 2.8% | 2
CC(=O)Nc1ccc(OCC(=O)NCCc2ccc(Cl)cc2)cc1 | -2 | 8% | 0 | -3.1 | 0 | 0.4% | 3
Cc1nc(N2CCC(C)CC2)c2c(C)c(C(=O)Nc3ccc(C(F)(F)F)cc3)sc2n1 | 16 | 3% | -5 | -4.3 | 9 | 40µM* | 0
Cc1ccc(-n2cccn2)c(CN2CCCC(C(=O)c3ccc4c(c3)OCO4)C2)c1 (stereo not given) | 4 | 16% | -11 | -2.5 | -1 | u | -4
CCOC(=O)c1c(C)[nH]c(C(=O)CSc2nc3ccccc3o2)c1C | -7 | 24% | 0 | -0.4 | 3 | 1.3% | -5
COc1ccc(NC(=O)CNC(=O)Cn2c(C)cc3ccccc3c2=O)c(OC)c1 | 5 | -18% | 6 | -3.9 | 2 | 13%&8.0% | 9
O=C(NCc1cccnc1)c1ccc(COc2ccc3c(c2)CCC3)o1 | 17 | -51% | 3 | 2.5 | -3 | -0.4%[38.3 µM] | 17
O=C(COc1ccc(F)cc1)Nc1ccc2c(c1)OCCO2 | 0 | 0% | -38 | -0.7 | -24 | -0.9% | -20
CC(C)C(=O)N(Cc1cc(=O)[nH]c2ccccc12)c1ccccc1 | -1 | 8% | -14 | -1.3 | 8 | 22% | -3
CCCNC(=O)COc1cccc(C(=O)NCc2ccccc2)c1 | -6 | 31% | -3 | -4.6 | 7 | 0.7% | -6
CCCCN(C(=O)CNC(=O)c1ccco1)C(C(=O)NC1CCCCC1)c1cccnc1 (stereo not given) | 17 | 24% | -9 | -2.8 | -4 | -2.1% | 4
COCCN=C1OC(=O)N2C(=O)C3=C4[C@@H](C[C@H]5C(=O)N(c6ccccc6)C(=O)[C@H]5[C@H]4[C@@]12Cc1ccccc1)[C@H]1C(=O)N(c2ccccc2)C(=O)[C@H]1[C@H]3C | 18 | -1% | -6 | -1.5 | -3 | 1.2% | -9
COc1ccc(C(=O)Nc2ccc(NC(=O)Cc3ccccc3)cn2)cc1 | u | -2% | 8 | -0.2 | 9 | 2.9% | -1
COc1ccccc1CC(=O)Nc1ccc2c(C)cc(=O)oc2c1 | -13 | 12% | -4 | -0.5 | 1 | 11% | x
CC(Sc1ccccn1)C(=O)Nc1ccc2c(c1)OCO2 (stereo not given) | -15 | x | -3 | -0.7 | 0 | -1.3% | -5
Cc1cccc2c1OCC/C2=N\NC(=O)COc1ccccc1 | x | 13% | -12 | -2.2 | -2 | 11%[38.3 µM] | 3

Taken from above, four compounds:
SMILES | TRPV1 PAM | Sfp inh | D2 PAM | D2 ag | Six1-Eya2 inh | PINK1 modulator | CtBP-E1A inh
COc1ccc(C(=O)Nc2ccc(NC(=O)Cc3ccccc3)cn2)cc1 | u | -2% | 8 | -0.2 | 9 | 2.9% | -1
COc1ccccc1CC(=O)Nc1ccc2c(C)cc(=O)oc2c1 | -13 | 12% | -4 | -0.5 | 1 | 11% | x
CC(Sc1ccccn1)C(=O)Nc1ccc2c(c1)OCO2 (stereo not given) | -15 | x | -3 | -0.7 | 0 | -1.3% | -5
Cc1cccc2c1OCC/C2=N\NC(=O)COc1ccccc1 | x | 13% | -12 | -2.2 | -2 | 11%[38.3 µM] | 3

Compound profiles (already shown). Screens in order: TRPV1 PAM	Sfp inh	D2 PAM	D2 ag	Six1-Eya2 inh	PINK1 modulator	CtBP-E1A inh
Entry for COc1ccccc1CC(=O)Nc1ccc2c(C)cc(=O)oc2c1 → -13	12%	-4	-0.5	1	11%	x
Entry for CC(Sc1ccccn1)C(=O)Nc1ccc2c(c1)OCO2 (stereo not given) → -15	x	-3	-0.7	0	-1.3%	-5

The main list resumes, repeating the two entries before the break.
SMILES | TRPV1 PAM | Sfp inh | D2 PAM | D2 ag | Six1-Eya2 inh | PINK1 modulator | CtBP-E1A inh
CC(Sc1ccccn1)C(=O)Nc1ccc2c(c1)OCO2 (stereo not given) | -15 | x | -3 | -0.7 | 0 | -1.3% | -5
Cc1cccc2c1OCC/C2=N\NC(=O)COc1ccccc1 | x | 13% | -12 | -2.2 | -2 | 11%[38.3 µM] | 3
CC1(C(=O)NS(=O)(=O)C2CC2)CCCN(C(=O)COCc2ccccc2)C1 (stereo not given) | x | x | -5 | -3.8 | 8 | 1.1% | 8
COc1cc(CNc2ccc(N3CCOCC3)cc2)cc(Br)c1OC | 2 | u | 9 | u | u | 4.3% | x
Cc1ccc(Nc2nnc(SCC(=O)NCCN3C(=O)CSC3=O)s2)cc1C | 5 | 0% | -2 | -2.0 | u | -1.2% | x
Clc1ccc2nc(-c3cccc(SC4CCCCC4)c3)c(NCc3ccccc3)n2c1 | 19 | x | -6 | -2.5 | 24 | 13% | 25
O=C(NCCc1ccc(C(F)(F)F)cc1)C1CC(=O)N(Cc2ccccc2)C1 (stereo not given) | 7 | x | -1 | 0.6 | 2 | 0.7% | 0
O=C(CCc1c[nH]c2ccccc12)N1CCN(c2ccc(F)cc2)CC1 | -6 | 7% | 1 | -3.3 | -8 | 1.8% | 4
CCOc1ccc(NC(=NCc2ccc3c(c2)OCO3)SC2CC(=O)N(c3ccc(C(=O)O)cc3)C2=O)cc1 (stereo not given) | 18 | -15% | -15 | -2.4 | -11 | 1.2% | -20
Cc1ccc2c(Cl)cc(Cl)c(O)c2n1 | x | 10%&12% | -54 | -4.3 | u | 3.9%&-0.9% | -65*
Cc1cc(OC(C)C(=O)NCCc2c[nH]c3ccccc23)c2c(C)cc(=O)oc2c1 (stereo not given) | 5 | 6% | 2 | -2.9 | -7 | 1.2% | -3
c1coc(-c2nc(-c3ccco3)c(-c3ccco3)nc2-c2ccco2)c1 | -2 | 35µM* | 1 | 2.2 | u | u | 6
O=C(Nc1ccccc1Oc1ccccc1)c1cccs1 | -7 | -2% | -4 | -2.5 | 20 | -0.6% | 7
CCNc1nc(NCC)n2c(SCC(=O)Nc3ccccc3C(F)(F)F)nnc2n1 | 4 | x | -10 | -1.0 | -6 | 0.3% | -1
COc1ccccc1N(CC(=O)Nc1ccccc1C(F)(F)F)S(=O)(=O)c1cccs1 | x | x | -8 | -1.6 | -6 | 5.5% | x
COc1ccc(CCNC(=O)C(=O)N/N=C/c2cccs2)cc1OC | -3 | -12% | 3 | 3.0 | 5 | 3.2% | -10
CC1CCCN(C(=O)c2ccc(S(=O)(=O)N3CCC(c4nc5ccccc5s4)CC3)cc2)C1 (stereo not given) | x | x | -12 | 4.4 | 0 | -0.1%[38.3 µM] | 8
COC(=O)C1CN(C(=O)COc2cc(C)c(Cl)c(C)c2)c2ccccc2O1 (stereo not given) | 28 | -3% | -2 | -1.3 | 0 | 0.0% | x
CC(C)n1cc(/C=C2/NC(=O)N(c3cccc(Cl)c3)C2=O)c2ccccc21 | -8 | 4% | 6 | -5.2 | -2 | 6.4% | 2
Oc1ccc(CN2CCN(c3ncccn3)CC2)cc1 | -8 | -9% | u | 57* | -1 | 1.4% | 10

Assay outcomes (PubChem)
